# From PubChem BioAssay
# miR-21 reporter = raises the signal of a miR-21 reporter. HeLa miR-21 FLuc reporter, luciferase, 48 h. Potency, µM (highest dose often 38.3 µM), for inactives: at the top dose reporter change, positive = more light. 340,000 tested, under 10 active. AID 2288; active = well fitted rising curve with a large enough effect; inconclusive = small, poorly fitted or top-dose-only effect; inactive = no such curve, though single readings can be large or run the other way;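 note: % of control where 0% means no effect; miR-21 action dims this reporter so a rising signal means less miR-21 action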
#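 Using DMEM plus 10% FBS, HeLa miR-21-FLuc cells are incubated with test compounds (final up to about 40uM) for 48 hours; firefly luciferase signal is then imaged following reagent-mediated lysis.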
# Rango complex inh = prevents formation of the Rango-importin beta complex | Rango CFP/YFP FRET sensor + importin beta, 45 min | Q14974 | actives 0.031% (n = 340,000) | Potency, µM (top dose mostly 92.2 µM), without a hit: at the highest dose inhibition of complex formation; active = rising FRET ratio curve, often small or poorly fitted; inconclusive = mostly compound fluorescence or quenching in the first reads; inactive = flat curves in all reads;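 note: potency is the fitted concentration of half-maximal effect; 0% = DMSO wells and 100% = buffer wells lacking importin beta; nearly all actives have a fitted effect of over 15% in size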
# Target sequence (Q14974 whole entry, looked up): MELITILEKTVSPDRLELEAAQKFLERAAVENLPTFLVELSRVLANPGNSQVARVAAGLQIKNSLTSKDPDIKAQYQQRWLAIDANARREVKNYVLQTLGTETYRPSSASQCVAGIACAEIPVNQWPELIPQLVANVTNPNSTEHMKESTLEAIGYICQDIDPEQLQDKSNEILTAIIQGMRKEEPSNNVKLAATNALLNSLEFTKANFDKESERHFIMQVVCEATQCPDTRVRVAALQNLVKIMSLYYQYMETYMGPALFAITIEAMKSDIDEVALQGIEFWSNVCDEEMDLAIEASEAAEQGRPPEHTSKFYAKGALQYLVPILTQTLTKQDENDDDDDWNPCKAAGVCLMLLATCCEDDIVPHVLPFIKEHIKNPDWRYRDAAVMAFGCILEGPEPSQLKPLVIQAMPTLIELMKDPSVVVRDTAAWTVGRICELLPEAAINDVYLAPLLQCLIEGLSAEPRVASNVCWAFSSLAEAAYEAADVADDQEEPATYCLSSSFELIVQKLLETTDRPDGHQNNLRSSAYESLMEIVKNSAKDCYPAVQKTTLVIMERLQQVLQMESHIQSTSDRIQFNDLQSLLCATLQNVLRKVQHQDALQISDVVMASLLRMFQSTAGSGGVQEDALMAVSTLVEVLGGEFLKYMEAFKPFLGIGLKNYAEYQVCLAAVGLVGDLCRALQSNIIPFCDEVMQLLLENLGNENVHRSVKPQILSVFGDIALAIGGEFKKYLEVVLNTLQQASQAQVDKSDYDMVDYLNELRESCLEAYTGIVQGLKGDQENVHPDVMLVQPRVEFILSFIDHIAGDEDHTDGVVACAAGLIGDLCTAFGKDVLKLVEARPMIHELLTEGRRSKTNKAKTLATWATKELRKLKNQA
#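 FRET biosensor (snurportin 1 IBB flanked by EYFP and cerulean), 50 nM, with compound 5 min, then 0.125 microM importin beta in PBS, 1 mM DTT, 0.02% Tween-20, 0.1% BSA. CFP/YFP ratio read after 45 min at room temperature; pre-read flags interference.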
# GLA inh pH 4.5 = alpha-galactosidase A (human) inhibition, pH 4.5; P06280; purified enzyme, 4-MU-alpha-Gal fluorescence, pH 4.5; activity change, negative = inhibition, % at 105 µM; 230,000 tested, under 10 active; AID 1467; inconclusive = small, poorly fitted or top-dose-only inhibition, or a rising curve; inactive = flat fitted curve, though single readings scatter; no compound was filed as active;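 note: 0% = full activity with enzyme and -100% = basal without enzyme; dose as in the result columns while the protocol names 77 µM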
# Rango release inh = inhibitors of RanGTP-induced Rango-importin beta complex dissociation. O95149+P62826. Biochemical FRET Rango-importin beta, RanGTP-induced dissociation. Potency, µM (top dose mostly 46.1 µM), for the others: at the highest dose activity change, negative = inhibition. actives 0.071% (n = 340,000). AID 540253; active means falling FRET ratio curve, often poorly fitted, with flat reads before Ran was added; inconclusive means other falling curves, or compound fluorescence or quenching; inactive means flat or rising ratio curve;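 note: potency is the fitted concentration of half-maximal effect; % of control where 0% means no effect; nearly all actives have a fitted effect of over 45% in size; -100% = wells without RanGTP and RCC1; the record marks most hits as doubtful in a second field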
#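 Quantitative HTS using a FRET biosensor: 0.1 uM Rango, 0.25 uM importin beta, 0.6 uM Ran, 2 mM GTP, 0.2 uM RCC1 final, PBS with DTT, Tween-20 and BSA. Post-read taken 45 min after Ran addition.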
# The depositor's hits bear a star; ? = inconclusive; . = not tested or not shown; & = joins results of further samples. An excerpt; rates above refer to the full screens.
# The first 2 records, ahead of the listing:
mol	miR-21 reporter	Rango complex inh	GLA inh pH 4.5	Rango release inh
CCc1ccc(/C=C2\SC(N3CCCC3)=NC2=O)cc1	-56%	0.9%	-1	-1%
CC[C@@]12C(=O)N(c3cccc(C)c3)C(=O)N1[C@H](c1ccc(Br)cc1)[C@@H]1C(=O)N(C(C)(C)C)C(=O)[C@@H]12	12%	2.6%	.	22%

# The list itself (from the top)
mol	miR-21 reporter	Rango complex inh	GLA inh pH 4.5	Rango release inh
CCc1ccc(/C=C2\SC(N3CCCC3)=NC2=O)cc1	-56%	0.9%	-1	-1%
CC[C@@]12C(=O)N(c3cccc(C)c3)C(=O)N1[C@H](c1ccc(Br)cc1)[C@@H]1C(=O)N(C(C)(C)C)C(=O)[C@@H]12	12%	2.6%	.	22%
Cn1c(=O)c2c(nc(SCC(=O)NCC3CCCO3)n2Cc2ccc(F)cc2)n(C)c1=O (centres undefined)	11%	2.4%	4	?
Cc1cc(Br)cc(/C=N/NC(=O)c2ccc3c(c2)OCO3)c1O	2%	-8.0%	.	-19%
COc1ccc(-c2cc3cc(OC)c(OC)cc3cn2)cc1	.	0.9%	.	2%
Cc1ccc(S(=O)(=O)N(C)Cc2ccc(-c3nnco3)cc2)cc1	-13%	5.1%	4	0%
COc1ccc(-c2c(C(=O)O)c(-c3ccccc3)cn2C)cc1	.	0.2%	.	-15%
Cc1ccc(NC(=S)N=Nc2c(O)n(C)c3ccc(S(=O)(=O)N4CCOCC4)cc23)cc1	-2%	2.1%	-5	0%
Cc1cc(C)c(NC(=O)c2ccc3c(c2)CCN3S(C)(=O)=O)c(C)c1	6%	0.2%	.	0%
COc1ccc(/C=N/NC(=O)CNC(=O)/C=C/c2ccco2)cc1OC	-8%	-3.2%	.	-7%
CC(=O)N(CCCN(C)C)Cc1ccccn1	1%	0.3%	-5	-6%
N#CCCN1CCC(NC(=O)OCc2ccccc2)CCC1=O (centres undefined)	2%	0.3%	.	9%
CC(C)NC(=O)[C@@H]1C[C@@]1(C)[C@@H](NC(=O)OCc1ccccc1)c1ccccc1	-3%	-3.3%	-3&-12	23%
COCCN1C=C(C(=O)OC)C(c2cc3c(cc2Br)OCO3)C(C(=O)OC)=C1	-5%	9.4%	3	0%
COc1ccc(-c2cc(C(=O)NCC3CCCO3)c3cc(C(C)C)ccc3n2)cc1 (centres undefined)	-4%	-1.4%	.	-4%
CCOc1ccc(N(C(=O)c2snc(C(N)=O)c2N)C(C(=O)NCC2CCCO2)c2ccc(C)o2)cc1 (centres undefined)	-11%	-0.1%	.	13%
CCOc1ccc2nc(NC(=O)c3ccco3)sc2c1	-2%	-3.8%	.	-2%
CCOC(=O)C1=C(C)NC(=O)NC1c1c(OCC(=O)N2CCCCC2)ccc2ccccc12 (centres undefined)	-7%	-1.3%	3	14%
CCOC(=O)N1CCN(C(=O)CCC(=O)N2CCOc3ccc(C)cc32)CC1	-8%	-0.7%	-1	4%
C=CCc1ccccc1OCC(O)CNC (centres undefined)	-9%	0.0%	3	4%
CS(=O)(=O)N(CC(=O)NCc1ccco1)c1cccc([N+](=O)[O-])c1	-1%	-2.5%	6	-3%
COc1ccc(/C=C\c2onc(C)c2S(=O)(=O)N2CCC(C(=O)NCc3ccco3)CC2)cc1	-1%	-4.3%	-2	24%
O=C(Nc1ccccc1C(=O)NC(Cc1ccccc1)C(=O)O)c1ccccc1 (centres undefined)	-5%	0.8%	-1	-3%
CCOC(=O)c1c(NC(=O)c2c(Br)cnn2CC)sc(C)c1C	-7%	-7.3%	5	-17%
Cc1nc2ccccc2cc1C(=O)N/N=C/c1ccccc1[N+](=O)[O-]	-3%	-2.6%	2	20%
Cc1c(CC(=O)O)c(=O)oc2c(C)c3occ(-c4ccc(Br)cc4)c3cc12	-2%	-2.1%	.	-18%
O=C(CSc1nnc(NC(=O)c2cccc(F)c2)s1)NC1CCCC1	-6%	-3.5%	.	-9%
Cc1ccc(C(=O)CNc2nc3c(c(=O)[nH]c(=O)n3C)n2Cc2ccccc2)cc1	-4%	0.0%	-4	-4%
C=CCN1C=C(C(=O)c2ccccc2)C(=O)CC1	.	1.1%	.	2%
Cc1ccc(C)c(NC(=O)CN(C)C(=O)c2cc3ccccc3o2)c1	-12%	0.1%	-8	17%
CCc1ccc(NC(=O)CSc2nnc(COc3ccc4c(c3)CCCC4)o2)cc1	-5%	0.1%	5	-6%
COc1cc(/C=C/C(=O)NCC(=O)N2CCC(N(C)CCN3CCOCC3)CC2)ccc1OC(C)C	-1%	-0.3%	1	5%
CC(CNC(=O)c1ccc(Br)o1)NC(=O)c1ccc(Br)o1 (centres undefined)	-5%	3.7%	6	-3%
CC(C)(C)N1CC(OC(N)=O)C1	-1%	-1.5%	-1	-14%
COCC1CCN(C(=O)CCc2nnc(C3(c4ccc(Cl)cc4)CCC3)o2)C1 (centres undefined)	-51%	?	.	-6%
CCCNC(=O)CN(Cc1ccccc1F)S(=O)(=O)c1ccc(C)cc1	0%	2.1%	6	20%
COc1cc(N=Nc2ccc(C)cc2S(N)(=O)=O)c(C)cc1N	.	?	.	1%
Cc1ccc(Oc2nc(C(F)(F)F)nc3ccccc23)cc1	-6%	0.1%	0	2%
COc1ccc(N2CC(C(=O)N3CCCC(C)C3)CC2=O)cc1 (centres undefined)	-4%	-2.5%	.	1%
CC(=O)N1CCN(C(=S)Nc2cc(S(=O)(=O)N3CCOCC3)ccc2Cl)CC1	-1%	2.7%	?	1%
CCn1cc(C(=O)N[C@@H](CCSC)C(=O)NCCO)c(=O)c2cc3c(cc21)OCO3	-4%	-6.8%	.	16%
Cn1c(CC(=O)NC(C)(C)CO)c(Sc2ccccc2)c2ccccc21	-1%	-0.3%	-14	0%
CCOc1cc(S(=O)(=O)N2CCCCCC2)ccc1F	-4%	-2.4%	2	2%
CC12CCC(=O)N1C(C(=O)NCc1ccc(Cl)cc1Cl)CS2 (centres undefined)	.	0.3%	.	0%
O=C(CCn1c(=O)oc2ccccc21)N(Cc1ccccc1)c1ccccn1	.	-2.7%	.	13%
CCOC(=O)c1c(NC(=O)COC(=O)c2nccnc2N)sc(C(=O)N(C)C)c1C	.	3.3%	.	1%
Cc1ccccc1Cn1c(Cc2ccccc2)nc2ccccc21	-5%	-2.6%	-7	5%
Cc1ccc2nc(SCC(=O)Nc3ccc(Br)cc3)nc(=O)n2c1	.	-0.7%	.	5%
O=C(c1cc2nc(-c3ccccc3)cc(-c3ccccc3)n2n1)N1CCN(C(=O)c2ccco2)CC1	5%	?	-5	3%
CCOC(=O)c1c(NC(=O)C[n+]2ccccc2)sc2c1CCCC2	3%	0.8%	-6	-8%

# Additional compounds follow:
mol	miR-21 reporter	Rango complex inh	GLA inh pH 4.5	Rango release inh
Cn1c(SCc2c(F)cccc2Cl)nnc1-c1cnccn1	-62%	-1.3%	-7	-7%
COc1cc2c(cc1OC)C(C)N(C(=O)c1cc3c(=O)oc4ccc(C)cc4c3s1)CC2 (centres undefined)	-8%	-2.1%	-3	9%
Cc1ccc(-c2csc(NC(=O)C3=NN(c4ccccc4)C(=O)CC3)n2)cc1	18%	-0.1%	1	-7%
O=C(Cn1cccc1C(=O)c1ccccc1)NCc1ccccn1	-1%	-2.6%	2	-13%
O=C(CCn1c(=S)oc2ccccc21)Nc1ccc2c(c1)OCCO2	-22%	-0.1%	0	3%
Cc1ccc(CNC(=O)C2CCCN2S(=O)(=O)c2ccc(F)cc2)cc1 (centres undefined)	-1%	1.2%	.	6%
COc1cccc(CNC(=O)CN2C(=O)CC(c3ccccc3)=Nc3ccccc32)c1	4%	0.8%	3	1%
CC(CSc1nc2ccccc2s1)Cn1c(N2CCCC2)nc2c1c(=O)[nH]c(=O)n2C (centres undefined)	-17%	0.1%	1	17%
CCCCC(CC)CN1CN(CC(CC)CCCC)CC(C)(N)C1 (centres undefined)	.	6.1%	-1	17%
Cc1sc2nc(CSCC(=O)N3CC(C)OC(C)C3)[nH]c(=O)c2c1C (centres undefined)	.	-14%	.	-23%
O=C(Nc1nc2ccccc2s1)c1ccc(Cl)s1	-32%	4.9%	0	8%
COC(=O)c1ccc(CNC(=O)Cn2cnc3c(SC)nc(N)nc32)cc1	.	2.5%	.	2%
CCOc1cc(/C=N/NC(=O)c2nn(C)cc2Br)ccc1OCc1ccccc1Cl	-7%	-0.3%	-15	-10%
CN1Cc2c(N3CCOCC3)nc3sc(C(=O)c4ccccc4)c(N)c3c2CC1(C)C	-4%	?	-12	-21%
COc1ccc(C(=O)NC2CCN(S(=O)(=O)c3ccccc3)CC2)cc1	7%	-1.4%	.	4%
CCOC(=O)c1oc2ccccc2c1NC(=O)c1cccs1	-3%	1.8%	5	4%
COc1cc(C(F)(F)F)c(C(=O)N(C)Cc2ccc(Cl)c(Cl)c2)cn1	-3%	-1.2%	-15	17%
CC(=O)N1CCc2cc(S(=O)(=O)Nc3ccccc3N3CCN(C)CC3)ccc21	-1%	-1.5%	0	4%
O=C(CCn1c(=O)[nH]c2ccsc2c1=O)Nc1ccc(F)c(F)c1	-7%	-1.2%	-17	3%
C=CCc1cccc2cc(C(=O)Nc3ccc(F)cc3)c(=O)oc12	-32%&-12%	0.4%	8	0%
CCOC(=O)c1c(C)[nH]c(C2=NNC(=NC(C)COC)SC2)c1C (centres undefined)	-51%	-1.6%	-4	-3%
Cc1cc(C(=O)OCC(=O)Nc2ccccc2Cl)c(C)o1	.	4.2%	.	9%
N/C(=N\OC(=O)c1ccc(Cl)c(Cl)c1)c1cccnc1	-27%	0.7%	-4	1%
CCCCC(CC)C(=O)NCCCN1CCN(CCCNC(=O)C(CC)CCCC)CC1 (centres undefined)	-2%	-0.3%	-3	-4%
Cc1ccc(NC(=O)CNC(=O)c2ccc(C)s2)nc1	.	-2.0%	.	-14%

# Four entries from above, with the structure last.
miR-21 reporter	Rango complex inh	GLA inh pH 4.5	Rango release inh	compound
-8%	-3.2%	.	-7%	COc1ccc(/C=N/NC(=O)CNC(=O)/C=C/c2ccco2)cc1OC
1%	0.3%	-5	-6%	CC(=O)N(CCCN(C)C)Cc1ccccn1
2%	0.3%	.	9%	N#CCCN1CCC(NC(=O)OCc2ccccc2)CCC1=O (centres undefined)
-3%	-3.3%	-3&-12	23%	CC(C)NC(=O)[C@@H]1C[C@@]1(C)[C@@H](NC(=O)OCc1ccccc1)c1ccccc1

# (further entries)
# Below each SMILES – miR-21 reporter, Rango complex inh, GLA inh pH 4.5, Rango release inh
> CC1Cc2ccccc2N1C(=O)CSc1nnnn1C1CCCC1 (centres undefined)
→ 6%, 4.3%, -21, 4%
> O=C1CN(C(=O)COC(=O)c2ccccc2O)c2ccccc2N1
→ -1%, -0.2%, 6, 15%
> COc1cc2c(cc1OC)[C@H](C)N(C(=O)CSc1nc(O)c(C(C)C)c(=O)[nH]1)CC2
→ -7%, 1.8%, ., -3%
> CC1(C)C2CCC1(C)C(OC(=O)CSc1nc(N)cc(=O)[nH]1)C2 (centres undefined)
→ -29%, -0.9%, 2, 11%
> O=C(c1ccccc1)C(c1ccccc1)c1ccccc1
→ ., ?, ., -3%
> O=C(c1ccsc1)N1CCCC(N2CCOCC2)C1 (centres undefined)
→ 4%, -0.3%, ., 3%
> CCN(CC)S(=O)(=O)c1cc(C(=O)NC2=NCCS2)ccc1Cl
→ -17%, -0.6%, 1, 9%
> Nc1nnc(SCC(=O)NNC(=O)c2ccccc2F)s1
→ ., -0.8%, ., -4%
> S=c1nc(-c2ccccc2)oc2c1CCCC2
→ -54%, -2.3%, 9, -2%
